Screening results from PubChem.
NPYLR7 agonist = agonists of mosquito NPYLR7 receptor, primary screen, cell-based, Aedes aegypti, calcium fluorescence, mosquito biting behavior | HEK293T NPYLR7/Galpha15, GCaMP6s calcium fluorescence | activation, % at 10 µM | actives 0.15% (n = 270,000) | AID 1259423, 2018; in the data active means activation above about 40%;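 further: 0% = vehicle and 100% = reference agonist at the receptor; some compounds past the cut are filed as inactive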
NPYLR7 agonist max-min = recorded beside NPYLR7 agonist, whose call it bears; activation, %; measured here: Max-Min RFU normalised activation; some inactives read as strong as hits;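 span of the calcium signal over five minutes; 0% = vehicle and 100% = native peptide agonist; compound fluorescence can raise it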
Starred values were filed as active, the others as inactive. A portion of the library; rates above refer to the full screens.

The opening 2 records, ahead of the listing:
SMILES | NPYLR7 agonist | NPYLR7 agonist max-min
O=C(NCCc1cccs1)c1ccccc1N1CCC(NC(=O)C2CCC2)CC1 | 10 | 11
COc1ccc(C2C(C#N)=C(C)NC3=C2C(=O)CC(c2ccccc2)C3)cc1 (configuration not stated) | 2 | 1

Results, from the first entry:
SMILES | NPYLR7 agonist | NPYLR7 agonist max-min
O=C(NCCc1cccs1)c1ccccc1N1CCC(NC(=O)C2CCC2)CC1 | 10 | 11
COc1ccc(C2C(C#N)=C(C)NC3=C2C(=O)CC(c2ccccc2)C3)cc1 (configuration not stated) | 2 | 1
Cc1cc(O)c(C(c2ccccc2)N2CCN(C)CC2)c(=O)n1Cc1ccco1 (configuration not stated) | 14 | 5
CN1CCCC(CN)C1c1ccc(C(F)(F)F)cc1 (configuration not stated) | -5 | -7
CCOC(=O)[C@@H]1[C@@H](OC)C(=O)N(C(C)C)C12CCN(C(=O)c1cc(OC)c(OC)c(OC)c1)CC2 | 25 | 22
Cc1ccc(-c2csc3ncnc(N4CCN(C(C#N)c5ccc(F)cc5)CC4)c23)cc1 (configuration not stated) | 3 | 2
O=C(CC1CCc2ccccc21)N1CCC2(CCCO2)CC1 (configuration not stated) | 7 | 3
C=CCNS(=O)(=O)c1cc(Cl)ccc1Cl | 4 | 6
Cc1ccccc1-c1nnc2ccc(-c3cccc4ncccc34)cn12 | -3 | -10
COc1ccc(CNc2ccc([N+](=O)[O-])cn2)cc1OC | -18 | -17
FC(F)(F)c1cccc(-c2noc(-c3cc(-c4ccccc4)c(C(F)(F)F)s3)n2)c1 | -13 | -15
COC(=O)C1CCN(C(c2ccc(OC)cc2)C2Sc3ncnn3C2=O)CC1 (configuration not stated) | 5 | 3
O=C(Nc1nc(CC(=O)N2CCN(c3ncccn3)CC2)cs1)c1ccc[nH]c1=O | 9 | 11
O=C(O)C(F)(F)C(F)(F)C(F)F | 5 | 10
CCCC1CN(CC(C)(C)CN(C)C)S(=O)(=O)c2cccnc2O1 (configuration not stated) | 7 | 19
CCc1ccc(C(=O)Nc2c(-c3ccccc3)nc3ccccn23)cc1 | -7 | 0
CSc1snc(SCC(N)=O)c1C#N | 4 | 2
Cc1ccc(NC(=O)c2c(O)c3ccccc3[nH]c2=O)c(C)c1 | -6 | -6
COC1=CC(=O)C(C(=O)c2ccccc2)=CC1=O | -10 | -16
CC(C)(C)c1ccc2cc(C(=O)NCC3CCCO3)[nH]c2c1 (configuration not stated) | 0 | -1
O=C(Nc1cc2c(cc1Cl)OCCO2)C1CCCCC1 | -1 | -4
COc1ccc(C(=O)C2CCN(S(=O)(=O)c3ccc(Br)cc3)CC2)cc1 | -12 | -15
O=C(Cc1ccc(F)cc1)NNS(=O)(=O)c1ccc(Cl)cc1 | 5 | 8
O=C(Nc1ccccc1)Nc1ccc(NC(=O)c2ccco2)cc1 | 28 | 14
CS(=O)(=O)NCC(O)Cn1c2ccccc2c2ccccc21 (configuration not stated) | 1 | -3
CCC/C=C/c1nccc(NC(C)C)n1 | 26 | 13
CN(C(=O)c1cc2nc(-c3ccc(Cl)c(Cl)c3)cc(C(F)(F)F)n2n1)C1CCCCC1 | -5 | -4
CCOCCCN(CC(=O)N(CCc1ccccc1)Cc1ccc(C)o1)C(=O)CCc1ccccc1 | -1 | -1
COc1ccccc1NC(=O)N1CCN(c2nc(Cc3ccc(C)cc3)ns2)CC1C (configuration not stated) | 0 | 3
COc1ccc(CCN(C)C(=O)CCN(Cc2ccco2)c2nc(Cc3ccc(C)cc3)ns2)cc1OC | 20 | 26

Whole records as entered above. Order of values: NPYLR7 agonist, NPYLR7 agonist max-min
`COc1ccc(C(=O)C2CCN(S(=O)(=O)c3ccc(Br)cc3)CC2)cc1` as listed: -12, -15
`C=CCNS(=O)(=O)c1cc(Cl)ccc1Cl` as listed: 4, 6
`Cc1cc(O)c(C(c2ccccc2)N2CCN(C)CC2)c(=O)n1Cc1ccco1` (configuration not stated) as listed: 14, 5
`CS(=O)(=O)NCC(O)Cn1c2ccccc2c2ccccc21` (configuration not stated) as listed: 1, -3
`O=C(Nc1ccccc1)Nc1ccc(NC(=O)c2ccco2)cc1` as listed: 28, 14

Next records follow:
SMILES | NPYLR7 agonist | NPYLR7 agonist max-min
Cn1c(NC(=O)c2ccc(C(F)(F)F)cc2)cc(=O)n(C)c1=O | 9 | 10
CC(C)C(=O)N1CCC1(C)C(=O)Nc1ccccn1 (configuration not stated) | -3 | -3
CC(=O)N1N=C(c2ccc([N+](=O)[O-])cc2)CC1c1ccccc1 (configuration not stated) | -5 | -10
CC(=O)Nc1cncc(-c2cccs2)n1 | 5 | 2
CC(=O)Nc1cccc(Oc2cc(C#N)c(C#N)cc2N2CCCCCC2)c1 | -4 | -3
O=C(NCC1CCN(c2nc(Cc3ccc(Cl)cc3)ns2)CC1)c1ccc(Br)cc1 | 14 | 17
O=S(=O)(Oc1ccc2ccccc2c1Cl)N1CCCCC1 | 5 | 10
Cc1ccc(OC(=O)c2ccccc2C(=O)OCC(F)(F)C(F)F)cc1 | -14 | -21
COCCCN(Cc1c(C)nn(-c2cccc(F)c2)c1N1CCN(C)CC1)C(=O)c1cc(OC)cc(OC)c1 | 5 | 15
COc1cc(Br)c(CC(=O)NC2=NCCS2)cc1OC | -1 | -6
CC(NCC1CCOCC1)c1ccc(Cl)cc1Cl (configuration not stated) | 6 | 5
Fc1ccccc1-c1nnc(SCc2nc(-c3ccccc3)no2)n1C1CC1 | -2 | 2
CC(C)N(Cc1ccccc1)Cc1ccnc(Cl)c1 | 9 | 7
CCS(=O)(=O)c1oc(-c2cccs2)nc1S(=O)(=O)c1ccc(F)cc1 | 7 | 3
N#CCCn1cc(/C=C2\SC(=S)NC2=O)c(-c2cccc3ccccc23)n1 | 7 | 6
CC1CCCCN1CCCNC(=O)c1cc(-c2ccccc2F)n2nc(C(C)(C)C)cc2n1 (configuration not stated) | -7 | 12
CC1CN(C(=O)Nc2cn(C)c3ccccc23)CC(C)O1 (configuration not stated) | 6 | -2
CC(=O)NCCc1nc2ccccc2n1CCOc1ccc2ccccc2c1 | 1 | 8
CCc1nc2ccc(C(=O)Nc3ccc(NC(C)=O)cc3)cn2c1N(C)Cc1nccn1C | -4 | -7
CN(C)C(CNC(=O)C(=O)Nc1ccc(F)cc1Br)C1CCCCC1 (configuration not stated) | 0 | 2
COc1ccccc1-c1cc(C(=O)N2CCCC(N(C)Cc3ccccc3)C2)[nH]n1 (configuration not stated) | 22 | 11
CCc1nc2c(OCCn3cccc3)cccn2c1N(C)C(=O)c1ccccc1F | -10 | -3
Cc1cc(=O)n2c(-c3ccc(NC(=O)Nc4cccc(Cl)c4)cc3)csc2n1 | -5 | -5
O=C(CC1CCCC1)NCCn1ncc2c(N3CCCCCC3)ncnc21 | -3 | -4
COc1ccc(S(=O)(=O)N2CCCCCC2)cc1C(=O)Nc1ccc2oc(C)nc2c1 | 4 | 7
CN1C(=S)N(c2ccc(OCc3ccccc3)cc2)C(=O)/C1=C\c1cccc(OCCO)c1 | 23 | 24
Cc1ccc(CN2CCN(c3cncc(C(=O)N4CCCC4)n3)CC2)cc1F | 1 | -2
CC(=O)c1cccc(-n2c(=O)c3ccccc3n(CC(=O)NCc3ccc(F)cc3)c2=O)c1 | 19 | 20
Cc1oc(-c2ccc(NC(=O)Cc3ccccc3)cc2)nc1CNC(=O)C1CC=CCC1 (configuration not stated) | 16 | 5
O=C(NC1CCC(O)CC1)N1CC(OCCCOc2ccccc2)C1 (configuration not stated) | -1 | -6
CCOC(=O)C1=C(O)/C(=C\c2ccccn2)SC1=Nc1ccccc1C | 7 | 11
COc1cccc(-c2cnc(-c3ccc(CNC(=O)C=C(C)C)cc3)[nH]2)c1 | 25 | 20
CCN(CC)C(=NS(=O)(=O)c1ccc(Cl)cc1)c1ccc(Cl)cc1 | -7 | -15
COC(=O)CCc1c(C)nc2c(c(-c3ccccc3)nn2C2CCS(=O)(=O)C2)c1C (configuration not stated) | 14 | 5
O=C(c1ccc(Cl)nc1)N1CCN(c2nc3nccc(-c4cccc(C(F)(F)F)c4)n3n2)CC1 | 1 | 0
O=C1NCC(c2ccccc2)Cc2[nH]c(-c3nc(-c4cccnc4)no3)nc21 (configuration not stated) | 2 | -1
CCCOC(=O)c1cc(NC(=O)/C=C/c2ccccc2)ccc1O | -5 | -7
CCN1CCN(CCc2nc3c([nH]2)CC(C)(C)CNC3=O)CC1 | 4 | 10
COc1cccc(CN(Cc2nc(C(=O)N3CCCCC3)co2)C(C)C)c1 | 2 | 12
Cc1ccc(-c2cc(C(F)(F)F)n3ncc(C(=O)Nc4cccc(CCC#N)c4)c3n2)cc1 | -7 | -10
CCc1cc(=O)[nH]c(-n2nc(C)cc2NC(=O)C2CC(=O)N(c3ccc(C)c(C)c3)C2)n1 (configuration not stated) | 10 | 3
COCC(=O)Nc1ccc(N(C)C)c(CN(Cc2ccco2)C(=O)c2ccc(F)cc2)c1 | 20 | 25
CCN(CC)C(=O)Nc1ccc(F)cc1Br | -2 | -3
COc1cccc(NC(=O)Cn2c3ccc(C)cc3c3ncn(Cc4ccccc4)c(=O)c32)c1 | 0 | -5
Cc1ccc2c(C(O)=C(C#N)C(=O)c3cc(C)nn3C)c[nH]c2c1 | 8 | 3
CCC(C)N(Cc1cc(NC(=O)NC(C)C)ccc1N(C)C)C(=O)c1ccc(F)cc1 (configuration not stated) | 6 | 6
COc1ccc2[nH]cc(CCNC(=O)C(C)c3ccc(CC(C)C)cc3)c2c1 (configuration not stated) | -9 | -17
Cc1ccc2[nH]cc(C3CCN(S(=O)(=O)c4c(F)cc(F)cc4F)CC3)c2c1 | 29 | 29
C[n+]1cccc(NC(N)=O)c1 | 10 | 7
COc1ccc(N2CCC(NS(=O)(=O)c3ccccc3)CC2)cc1 | -18 | -23
O=C(Cc1cccs1)Nc1ccccc1C(=O)NCC1CCCO1 (configuration not stated) | 0 | -1
COc1ccc(Br)cc1S(=O)(=O)N1CCN(c2ccc(C)c(Cl)c2)CC1 | -10 | -10
CCc1ccc(NC(=O)Cn2c(=O)n(Cc3ccco3)c(=O)c3sc4ccccc4c32)cc1 | -3 | -8
Cc1ccc(-c2nnc(SCC(=O)N(C)C)n2C)cc1 | -9 | -12
COc1ccc(-c2cc3c(SCc4ccccc4C)nccn3n2)cc1 | 1 | -3
CN(CC(F)(F)F)C(=O)CNc1c(Cl)cccc1C#N | -1 | -1
O=S(=O)(N1CCCCC1)N1CCCN(S(=O)(=O)N2CCCCC2)CC1 | 1 | 0
O=C(NCC1CNCCOC1)Nc1ccccc1Cl (configuration not stated) | 21 | 14
CCN(CC)C(CNC(=O)Cn1cnc2c(cnn2C)c1=O)c1ccco1 (configuration not stated) | 5 | 4
CCN(CC)c1onc(-c2ccccc2)c1CN(CC1CC1)C(=O)C1CCCC1 | 0 | 7

6 entries picked at random from the list so far:
SMILES | NPYLR7 agonist | NPYLR7 agonist max-min
O=C(Cc1cccs1)Nc1ccccc1C(=O)NCC1CCCO1 (configuration not stated) | 0 | -1
C[n+]1cccc(NC(N)=O)c1 | 10 | 7
Cc1ccc(-c2nnc(SCC(=O)N(C)C)n2C)cc1 | -9 | -12
COc1ccc(-c2cc3c(SCc4ccccc4C)nccn3n2)cc1 | 1 | -3
Cc1ccc2[nH]cc(C3CCN(S(=O)(=O)c4c(F)cc(F)cc4F)CC3)c2c1 | 29 | 29
COc1ccc(Br)cc1S(=O)(=O)N1CCN(c2ccc(C)c(Cl)c2)CC1 | -10 | -10

Carrying on:
SMILES | NPYLR7 agonist | NPYLR7 agonist max-min
O=S(=O)(NC1CCc2nc(-c3ccccc3)ncc2C1)N1CCCCCC1 (configuration not stated) | -5 | -4
Brc1ccccc1CSc1nnc(-c2ccc3c(c2)OCO3)o1 | 0 | 3
CCOc1cc(CN2CCC(C3(Cc4cccc(OC)c4)NC(=O)N(C)C3=O)CC2)ccc1O (configuration not stated) | 32 | 11
COc1cc(OC)c(CNC(=O)CN2CCCN(C)c3ccc(Cl)cc32)c(OC)c1 | -1 | -7
Cc1c(Cl)c(C(F)(F)F)nn1CC(=O)N1CCSCC1 | 10 | 12
CC(C)(C)C(=O)NCCc1nc2ccccc2n1CCCCOc1ccccc1 | -6 | 0
COc1ccc(C(C)=O)cc1CSCC(=O)NC(C)C(C)C (configuration not stated) | -4 | -4
Cc1cc(C)cc(CSc2nc3ccccc3c(=O)n2C)c1 | -5 | -6
O=C1CCCCN1CCC(=O)N1CCc2onc(-c3cccc4ccccc34)c2C1 | 3 | -1
Cc1ccc(C(=O)Nc2ccccc2)cc1S(=O)(=O)Nc1ccc(Br)cc1 | 4 | 3
N#CCCN(C(=O)CN1CCN(c2nccs2)CC1)c1cccc(Cl)c1 | 13 | 9
COc1ccc(C2(O)CN(c3cccc(C)c3)C3=[N+]2CCCCC3)cc1OC (configuration not stated) | -1 | -2
CCCCNC(=O)N1CCN(c2cc(Cl)nc(SCC(=O)NCCc3ccccc3)n2)CC1C (configuration not stated) | 13 | 14
COc1cc(I)c(Cl)cc1C(=O)N(C)CC(C)(C)O | 2 | 0
c1cn(CCCNC2=NCCCCC2)cn1 | -4 | -11
CSCC(CCO)Nc1cccc(F)n1 (configuration not stated) | 13 | 7
